Source: PubChem BioAssay
MLL AF4-AF9 inh = inhibitors of human MLL-AF4/AF9 interaction; P42568; inhibition, % at 10 µM; AlphaScreen, biotin-AF4 peptide binding to FLAG-AF9; 350,000 compounds, 0.47% hits;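 active means every replicate reaching a set inhibition limit, whatever the replicate mean, cut at about 25% in these data; inconclusive means mean inhibition reaches that limit but some replicates miss it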;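 further: 0% = plate neutral control median and 100% = total signal loss; the record names both 10 and 1 µM as test concentration; the first replicate is given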
FGF22 binding = shifts melting point of recombinant human FGF22 | recombinant FGF22 thermal shift, SYPRO orange fluorescence; percent of sucrose octasulfate shift, DMSO zero | calls only at 9.99 µM | 340,000 compounds, 1.5% hits;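 active means melting point raised past a set limit in the mean and every replicate; inconclusive means no clear call; three in four hits are not shown here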
Target sequence (Q9HCT0 whole entry, looked up): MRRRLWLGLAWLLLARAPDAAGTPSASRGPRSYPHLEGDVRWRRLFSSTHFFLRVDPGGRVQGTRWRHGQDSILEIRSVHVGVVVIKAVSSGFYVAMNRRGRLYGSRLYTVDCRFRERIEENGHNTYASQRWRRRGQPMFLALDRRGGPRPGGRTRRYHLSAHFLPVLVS
HNF4A DNA FP = change in binding of human HNF4 alpha to DNA; P41235; HNF4a-FITC DNA binding, fluorescence polarization, 1 h; activity change, % at 10 µM; 360,000 compounds, 0.3% hits; AID 1224865; in the data active means activity change above about 30%, passing the limit was not always enough;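 further: controls were the assay level and a saturating level of protein; the project sought stronger binding though the title names inhibitors; some compounds called inactive have numbers as strong as hits; positive values seem to mean higher polarization but the record does not say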
Target sequence (P41235 whole entry, looked up): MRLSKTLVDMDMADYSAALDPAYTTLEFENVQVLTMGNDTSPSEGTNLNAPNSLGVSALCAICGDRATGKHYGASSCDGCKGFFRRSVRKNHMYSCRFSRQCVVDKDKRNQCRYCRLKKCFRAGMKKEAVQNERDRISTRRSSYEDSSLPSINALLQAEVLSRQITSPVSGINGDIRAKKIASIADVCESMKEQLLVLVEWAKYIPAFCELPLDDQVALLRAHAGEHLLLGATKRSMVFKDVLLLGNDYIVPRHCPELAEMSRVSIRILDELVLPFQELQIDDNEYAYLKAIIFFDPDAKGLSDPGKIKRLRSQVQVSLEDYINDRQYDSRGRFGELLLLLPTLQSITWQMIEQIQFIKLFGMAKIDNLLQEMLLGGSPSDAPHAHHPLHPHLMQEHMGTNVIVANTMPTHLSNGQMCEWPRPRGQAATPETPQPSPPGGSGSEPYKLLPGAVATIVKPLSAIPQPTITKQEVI
Vif TR-FRET = inhibitors of Vif binding to APOBEC3G peptide, primary screen, biochemical, TR-FRET, GST-Vif 1-94, biotin-A3G peptide, dose response retest (AID 1117319). TR-FRET GST-Vif / biotin-A3G peptide binding; higher % means a stronger effect; test concentration not given here; strong numbers were not always called active. 260,000 compounds, 0.57% hits. inhibition, %; hits with a dose series show IC50 in µM;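 active means above the screen mean plus three standard deviations and confirmed in dose response; inconclusive means results disagree or hit not tested in dose response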;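 further: Vif residues 1-94 fused to GST binding biotinylated APOBEC3G peptide 110-148; 0% = full assay without inhibitor and 100% = GST in place of GST-Vif; retest series ran down from 100 µM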
UCH37 inh = inhibitors of human deubiquitinating enzyme UCH37 | purified proteasome/UCH37, Ub-AMC cleavage fluorescence | inhibition, % (no concentration beside the values) | 330,000 compounds, 0.33% hits;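 active means mean of two replicates above 20%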;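 further: 0% = compound-free wells with enzyme and 100% = wells lacking proteasome; stock transfer was 100 nL into about 20 µL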
Target sequence (Q9Y5K5 whole entry, looked up): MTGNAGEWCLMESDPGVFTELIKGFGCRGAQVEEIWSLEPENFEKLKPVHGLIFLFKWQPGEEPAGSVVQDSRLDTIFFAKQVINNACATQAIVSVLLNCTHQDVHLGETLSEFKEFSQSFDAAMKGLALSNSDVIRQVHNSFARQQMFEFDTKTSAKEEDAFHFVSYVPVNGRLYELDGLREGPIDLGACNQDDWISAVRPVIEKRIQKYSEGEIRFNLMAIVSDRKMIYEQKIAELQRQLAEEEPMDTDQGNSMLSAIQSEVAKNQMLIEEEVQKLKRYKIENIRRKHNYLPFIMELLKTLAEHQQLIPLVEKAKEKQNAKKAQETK
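Material: Human UCH37 enzyme supplied as purified proteasome complex | Schedule: 30 min compound-proteasome preincubation then 25 min substrate reaction, room temperature | Detection: AMC fluorescence from Ub-AMC cleavage, excitation 355 nm, emission 460 nm | Benchmarks: Wells without proteasome as full block, compound-free enzyme plus substrate as uninhibited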
RanGTP-Impb inh = inhibitors of RanGTP-importin-beta interaction, primary screen, biochemical, FRET, CFP-Ran, YFP-importin-beta, homogeneous; cell-free CFP-Ran/YFP-importin-beta FRET ratio; inhibition, % (concentration not given with the values); 300,000 compounds, 1.1% hits;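 active means most replicates above 15%; inconclusive means exactly half above 15%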;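 further: 0% = DMSO wells and 100% = Ran loaded with GDP instead of GTP; wells of about 40 µL received 100 nL stock; the first replicate is given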
E coli growth = E. coli growth inhibition | Escherichia coli growth, OD600, 23 h; active compounds read low | AID 1053175 | OD600 absorbance (no concentration beside the values) | 330,000 compounds, 0.21% hits;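 active means OD600 absorbance below the run mean of sample wells minus 3.6 SD, in any replicate, cut at about 0.56 in these data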;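 further: stock transfer was 300 nL into about 60 µL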
The depositor's hits bear a star; i = inactive; ? = inconclusive; · = no result given; & = joins results of further samples.

Results follow in this order: MLL AF4-AF9 inh	FGF22 binding	HNF4A DNA FP	Vif TR-FRET	UCH37 inh	RanGTP-Impb inh	E coli growth
- COC(=O)C1=C(c2cccc(NC(C)=O)c2)C[C@@H]2CC[C@H]1N2C
  -7.1	i	5.8	·	1.7	·	·
- CC(C)N(Cc1ccco1)/N=C/c1c(O)n(Cc2ccccc2)c(=O)[nH]c1=O
  0.0	i	0.7	2%	7.1	0.3	0.63
- Cc1cc(C)cc(NC(=S)NC2CC3CCCC(C2)N3Cc2cccs2)c1 (stereo unspecified)
  ?	i	0.3	-12%	1.0	-4.0	0.63
- Cc1ccc(/C=C2\C(=O)NC(=O)N(CCc3ccc(F)cc3)C2=O)s1
  -2.1	i	-0.9	·	2.5	1.1	0.73
- CCOC(=O)Cn1cc(C(=O)c2ccccc2)c2ccccc21
  -2.1	i	-1.0	·	5.6	2.6	0.71
- O=c1[nH]c(=S)[nH]c(O)c1/C=N/N1CCOCC1
  3.7	i	3.3	1%	10	3.2	0.68
- O=[N+]([O-])c1ccc(N2CCNCC2)cc1NCc1ccco1
  3.2	i	-0.2	-15%	9.1	1.7	0.64
- CCOC(=O)C1(CCOc2ccccc2)CCN(Cc2ccccc2OC)CC1
  -3.7	i	1.6	·	3.2	1.9	0.59
- Cc1ccc(N2C(=O)NC(=O)/C(=C\c3cc(C)n(-c4sc5c(c4C#N)CCCC5)c3C)C2=O)cc1
  ·	·	-6.1	20%	6.5	-3.1	0.68
- CC(=O)N/C(=C\c1ccccc1)C(=O)OC(C)C(=O)c1ccccc1 (stereo unspecified)
  -0.3	i	1.8	4%	1.7	1.3	0.67
- CSCCC(N=Cc1c(O)n(-c2ccc(Br)cc2)c(=O)[nH]c1=O)C(=O)OC(C)(C)C (stereo unspecified)
  ·	·	5.7	-4%	3.1	-3.2	0.71
- COc1ccc(CC2(CCc3ccncc3)C(=O)NC(=O)NC2=O)cc1OC
  0.3	i	1.1	7%	6.4	-3.0	0.72
- CCN1C(=O)NC(=O)/C(=C\c2cn(CC(=O)N3CCCCC3C)c3ccccc23)C1=O (stereo unspecified)
  ·	·	232	-13%	3.2	3.7	0.7
- COC(=O)C1=C(c2ccc(C(C)=O)cc2)C[C@@H]2CC[C@H]1N2C(=O)N1CCC(O)CC1
  -0.9	i	-0.6	·	-0.6	·	·
- CN(CC#CCN1CCCC1)C(=O)c1cccc(Cl)c1
  2.1	i	2.4	·	-1.9	4.4	0.68
- O=C1NC(=O)C(=Cc2ccccc2OCCOc2ccc([N+](=O)[O-])cc2)C(=O)N1
  ·	·	-1.1	30%	15	·	0.66
- Cc1ccccc1N1C(=O)NC(=O)/C(=C/c2ccc(N3CCOCC3)o2)C1=O
  2.6	i	108*	·	21*	-2.8	0.67
- CCn1ccnc1CN1CCCC(C(=O)c2ccc(SC)cc2)C1 (stereo unspecified)
  5.2	i	-0.8	18%	2.3	0.8	0.69
- CCN1/C(=C\C=C\C2=[N+](CC)c3ccccc3C2(C)C)C(C)(C)c2ccccc21
  ·	·	-89	0%	10	27*	0.53*
- CC(=O)c1ccc(OC(=O)N(C)c2ccccc2)cc1
  -1.9	i	-1.0	-7%	-0.3	-1.4	0.65
- CCN1CCN(C(=O)COc2ccc3oc4c(c3c2)CCCC4)CC1
  -2.8	i	-2.6	·	·	·	·
- C=C1C(=O)O[C@H]2C[C@@H](C)[C@@H]3C=CC(=O)[C@@]3(C)C[C@H]12
  -0.5	i	·	19%	4.2	-0.9	·
- O=C(Cc1ccccc1)N1CCN(Cc2c[nH]c3ccccc23)CC1
  ·	·	2.6	7%	6.3	-1.5	0.66
- COC(=O)C1=C(c2ccc(F)cc2OCc2ccccc2)C[C@@H]2CC[C@H]1N2C(=O)NCc1ccc(Br)cc1
  1.0	i	0.1	·	5.4	·	0.84
- CC(=O)OC1CC2OC3C=C(C)CCC3(C)C1(C)C21CO1 (stereo unspecified)
  0.0	i	1.1	·	·	·	·
- CC12CCC(=O)CC1CCC1C2C(=O)CC2(C)C1CCC2(C)O (stereo unspecified)
  1.5	i	4.7	-10%	3.0	·	0.74
- CNC(=O)NC(O)C(Cl)(Cl)Cl (stereo unspecified)
  0.3	i	0.8	·	4.0	-17	0.69
- CC1(C)C(=O)CC[C@@]2(C)C1=CCC1C2CC[C@]2(C)C(=O)CCC12 (stereo partly specified)
  0.3	i	7.7	3%	2.4	·	0.71
- CC(=O)Nc1ccccc1C(=O)OCc1ccc(F)cc1
  -0.2	i	2.6	-4%	1.9	5.4	0.6
- C[N+]1(C)[C@@H]2CC(OC(=O)[C@H](CO)c3ccccc3)C[C@H]1[C@@H]1O[C@@H]12 (stereo partly specified)
  -1.6&-5.3	i	0.2&-2.8	3%&-11%	-0.1	0.5	·

A different layout for three compounds above.
Cc1ccccc1N1C(=O)NC(=O)/C(=C/c2ccc(N3CCOCC3)o2)C1=O
  MLL AF4-AF9 inh: 2.6
  FGF22 binding: i
  HNF4A DNA FP: 108*
  Vif TR-FRET: ·
  UCH37 inh: 21*
  RanGTP-Impb inh: -2.8
  E coli growth: 0.67

CCn1ccnc1CN1CCCC(C(=O)c2ccc(SC)cc2)C1 (stereo unspecified)
  MLL AF4-AF9 inh: 5.2
  FGF22 binding: i
  HNF4A DNA FP: -0.8
  Vif TR-FRET: 18%
  UCH37 inh: 2.3
  RanGTP-Impb inh: 0.8
  E coli growth: 0.69

CCN1/C(=C\C=C\C2=[N+](CC)c3ccccc3C2(C)C)C(C)(C)c2ccccc21
  MLL AF4-AF9 inh: ·
  FGF22 binding: ·
  HNF4A DNA FP: -89
  Vif TR-FRET: 0%
  UCH37 inh: 10
  RanGTP-Impb inh: 27*
  E coli growth: 0.53*

(more compounds)
Results follow in this order: MLL AF4-AF9 inh	FGF22 binding	HNF4A DNA FP	Vif TR-FRET	UCH37 inh	RanGTP-Impb inh	E coli growth
- CN1CCC(n2nccc2N)CC1
  ·	·	-0.8	-3%	0.9	-1.4	0.72
- O=C(Cc1ccccc1)NC(Oc1ccccc1Cl)C(Cl)(Cl)Cl (stereo unspecified)
  ·	·	3.0	-11%	5.8	-1.3	0.66
- O=C1CN=C(c2ccc[nH]2)c2cc(Cl)ccc2N1
  1.8	i	2.4	3%	1.4	6.9	0.66
- COC(=O)C1=C(c2ccc3ccccc3c2)C[C@@H]2CC[C@H]1N2C(=O)NCC1CC1
  3.4	i	-1.5	·	4.6	·	·
- COC(=O)C1=C(c2ccc(OCc3ccccc3)cc2)C[C@@H]2CC[C@H]1N2C(=O)NCc1ccc(N(C)C)cc1
  8.0	i	-1.8	·	-0.7	·	·
- COC(=O)C1=C(c2cccc(C#N)c2)C[C@@H]2CC[C@H]1N2C(=O)NCC1CC1
  -1.5	i	-1.4	·	0.8	·	·
- Clc1ccccc1NC1=NCCCS1
  -2.3	i	-1.2	·	·	-3.4	·
- COc1ccc(Br)cc1CNCCc1ccc2c(c1)OCO2
  9.2	i	-1.1	·	5.8	6.6	0.67
- CCC1CCC(C)N(N=O)C1 (stereo unspecified)
  3.9	i	-1.5	-10%	2.5	·	0.69
- Cc1cc(/C=C2/C(=O)NC(=O)N(c3ccc(Br)cc3)C2=O)c(C)n1C
  -2.4	i	2.9	30%	-1.3	4.6	0.7
- O=C1NC(=O)C(CCc2ccncc2)(C2CCCCC2)C(=O)N1
  ·	·	3.4	-2%	·	-1.0	0.71
- O=C1NC(=O)C(=Cc2ccc(N3CCN(C(=O)c4ccccc4)CC3)c([N+](=O)[O-])c2)C(=O)N1
  -0.9	i	3.1	14%	4.0	3.9	0.66
- Oc1ccc2c3c1OC1C(O)CC[C@@]4(O)[C@@H](C2)N(CC2CCC2)CC[C@]314 (stereo partly specified)
  ·	·	·	-6%	1.8	-4.7	·
- CCCCn1nnnc1C(c1cccc(OC)c1OC)N1CCC2(CC1)C(=O)NCN2c1ccccc1 (stereo unspecified)
  1.5	i	0.4	·	·	·	·
- CN1CC[C@@]2(C)c3cc(O)ccc3N(C)C2O1 (stereo partly specified)
  ·	·	2.3	·	-2.0	-11	·
- CCCC(=O)NC(Oc1ccc(OC)cc1)C(Cl)(Cl)Cl (stereo unspecified)
  -1.6	·	2.0	-5%	4.7	-1.4	0.7
- CC(C)(C)c1nc(NCc2ccc3c(c2)OCO3)c2nnn(Cc3ccccc3Cl)c2n1
  ·	·	1.4	-12%	1.8	·	0.83
- Cc1cccc(-n2c(O)c(/C=N/Nc3nc4c(c(=O)n(C)c(=O)n4C)n3C)c(=O)[nH]c2=S)c1
  ·	·	17	·	27*	3.1	0.66
- C=C(CC1CC(O)[C@]2(C)OC3CC4OC5C[C@]6(C)O[C@]7(C)CCC8OC9C[C@]%10(C)OC%11C(C)=CC(=O)OC%11CC%10OC9C[C@@H](C)C8OC7CC6O[C@]5(C)C/C=C\C4OC3CC2O1)C(=O)O (stereo partly specified)
  2.7	i	-3.4	-1%	2.9	1.9	0.79
- CC(C)n1c(=O)c(C=Nc2ccc(F)cc2)c(O)n(Cc2ccco2)c1=O
  -3.1	i	3.2	·	-1.1	5.5	0.67
- Cc1ccc(N=Cc2c(O)n(-c3ccc(C)cc3)c(=O)[nH]c2=O)cc1
  0.8	i	0.5	·	2.1	2.5	0.65
- COc1ccc(CCNCc2ccncc2)cc1
  ·	·	1.6	4%	2.2	0.4	0.67
- CCn1c(P(C)(=O)O)nc2ccccc21
  ·	·	-2.1	16%	3.6	-1.0	0.71
- C[C@]12CCC3[C@@H](CCC4=CC(=O)CC[C@@]43C=O)C1CCC2=O (stereo partly specified)
  -0.8	i	-1.0	1%	0.9	4.7	0.61
- O=c1[nH]c(=O)n(CCC2=CCCCC2)c(O)c1C=NCCN1CCNCC1
  ·	·	27	3%	3.3	3.5	0.68
- O=C1NC(=O)C(=Cc2ccc(-c3ccccc3[N+](=O)[O-])o2)C(=O)N1
  -4.9	i	-1.6	25%	·	-0.3	·
- O=C1NCN(c2ccccc2)C12CCN(C(c1nnnn1Cc1ccccc1)C1CC1)CC2 (stereo unspecified)
  2.6	i	-1.9	·	·	·	·
- c1ccc(-c2cc(-c3ccccc3)[n+](-c3ccccc3)c(-c3ccccc3)c2)cc1
  0.8	i	3.0	·	3.7	1.9	0.61
- COC12CCC3(CC1C(C)(O)C(C)(C)C)[C@H]1Cc4ccc(OC5OC(C(=O)O)[C@@H](O)C(O)[C@H]5O)c5c4[C@@]3(CCN1CC1CC1)C2O5 (stereo partly specified)
  ·	i	-0.7	·	0.6	·	0.74
- Cc1ccc2[nH]c(C)c(CCNCc3cccnc3)c2c1
  ?	i	1.5	-5%	2.1	-25	0.65
- O=C1NCN(c2ccccc2)C12CCN(C(c1ccccc1OC(F)(F)F)c1nnnn1Cc1ccccc1)CC2 (stereo unspecified)
  4.6	i	1.4	·	·	·	·
- CC12CN3CC(C)(CN(C1)C3c1cccnc1)C2=O (stereo unspecified)
  3.5	·	1.1	-5%	3.9	-0.5	0.7
- O=C1NC(=O)C(=Cc2ccc(N3CCOCC3)cc2)C(=O)N1
  -0.9	i	-0.5	23%	5.6	-0.5	0.69

The list is partial; count on the stated rates, not on these rows.
